# Compound activity (PubChem)
# ALR H2O2 inh: blocks human ALR sulfhydryl oxidase activity; inhibition, % (concentration not given with the values); AID 485317; 290,000 tested, 3.8% active; P55789; purified ALR, DTT oxidation, H2O2 HRP-luminol luminescence;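 active means mean and each replicate at 75% or more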;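 further: stock transfer was 7.5 nL into about 7.5 µL; 0% = neutral wells and 100% = wells with inactivated enzyme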
# HNF4A DNA FP: change in binding of human HNF4 alpha to DNA. P41235. HNF4a-FITC DNA binding, fluorescence polarization, 1 h. activity change, % at 10 µM. 360,000 tested, 0.3% active. AID 1224865; in the data active means activity change above about 30%, passing the limit was not always enough;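 further: controls were the assay level and a saturating level of protein; the project sought stronger binding though the title names inhibitors; some compounds called inactive have numbers as strong as hits; positive values seem to mean higher polarization but the record does not say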
# Target sequence (P41235 whole entry, looked up): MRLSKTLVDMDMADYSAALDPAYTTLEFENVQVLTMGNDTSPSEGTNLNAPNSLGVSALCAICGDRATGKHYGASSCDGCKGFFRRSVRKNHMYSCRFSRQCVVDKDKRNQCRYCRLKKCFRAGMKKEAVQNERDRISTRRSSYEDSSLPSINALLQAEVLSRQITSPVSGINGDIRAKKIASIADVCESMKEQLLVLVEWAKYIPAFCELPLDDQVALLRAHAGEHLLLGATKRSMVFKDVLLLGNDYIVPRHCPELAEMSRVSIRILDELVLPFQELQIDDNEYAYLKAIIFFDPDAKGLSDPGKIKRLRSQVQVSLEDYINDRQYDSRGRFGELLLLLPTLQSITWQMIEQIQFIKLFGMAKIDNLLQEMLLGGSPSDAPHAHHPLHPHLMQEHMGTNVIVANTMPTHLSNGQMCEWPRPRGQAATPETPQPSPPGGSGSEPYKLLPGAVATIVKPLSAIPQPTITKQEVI
# Beta2AR agonist: agonists of human beta-2 adrenergic receptor inducing internalization | response, % (test concentration not listed) | 340,000 tested, 0.43% active | Am2.2-beta2AR cells, FAP receptor internalization, flow cytometry; reference of the scale not given here | P07550;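 active means response above a set limit, near 3 SD of response in nonfluorescent compounds, cut at about 42% in these data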;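 further: stock transfer was 100 nL into about 11 µL; a reference agonist was the positive control; negative values mostly stem from fluorescent compounds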
# rRNA inh HTS: inhibits bacterial ribosomal RNA function over humanized ribosomes; E. coli WT GFP vs humanized-ribosome RFP mutants, fluorescence, 24 h; stronger effect = lower value; DMSO median 0, no signal -100; AID 720706; 350,000 tested, 1.6% active; GFP signal change (wild-type ribosome), % (concentration not given with the values);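 active means significant combined selectivity score with lowered wild-type GFP, culture density cut under 30%, mutant RFP and density less affected; inactive means any of these conditions unmet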; further: one replicate is shown; some compounds called inactive have numbers as strong as hits
# E coli growth: inhibitors of Escherichia coli growth | OD600, 23 h; stronger effect = lower value | OD600 absorbance (test concentration not listed) | 330,000 tested, 0.21% active;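 active means OD600 absorbance below the run mean of sample wells minus 3.6 SD, in any replicate, cut at about 0.56 in these data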;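 further: stock transfer was 300 nL into about 60 µL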
# UCH37 inh: inhibitors of human deubiquitinating enzyme UCH37 | Q9Y5K5 | purified proteasome/UCH37, Ub-AMC cleavage fluorescence | inhibition, % (test concentration not listed) | 330,000 tested, 0.33% active;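 active means mean of two replicates above 20%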;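 further: 0% = compound-free wells with enzyme and 100% = wells lacking proteasome; stock transfer was 100 nL into about 20 µL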
# Target sequence (Q9Y5K5 whole entry, looked up): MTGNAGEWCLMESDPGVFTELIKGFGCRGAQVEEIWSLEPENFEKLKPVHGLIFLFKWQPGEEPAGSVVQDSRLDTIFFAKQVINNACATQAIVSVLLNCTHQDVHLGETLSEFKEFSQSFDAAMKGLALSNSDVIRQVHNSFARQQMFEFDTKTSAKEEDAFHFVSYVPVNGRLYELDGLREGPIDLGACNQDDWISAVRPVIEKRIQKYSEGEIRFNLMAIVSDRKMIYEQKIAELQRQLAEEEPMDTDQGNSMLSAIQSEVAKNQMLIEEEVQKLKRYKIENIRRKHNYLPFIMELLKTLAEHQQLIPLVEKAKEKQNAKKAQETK
#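 System: Proteasome-associated human UCH37 deubiquitinase; Input: 0.15 nM proteasome in added enzyme buffer; Also added: Ub-AMC substrate from 1 µM stock; Incubation: 30 min compound-proteasome preincubation then 25 min substrate reaction, room temperature; Detection: fluorescence, ex 355 nm, em 460 nm; Read-out: % inhibition of Ub-AMC cleavage fluorescence; Benchmarks: no-proteasome and no-compound wells.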
# FGF22 binding: binders of recombinant human FGF22 by thermal shift. Q9HCT0. 340,000 tested, 1.5% active. AID 651658. SYPRO orange fluorescence; percent of sucrose octasulfate shift, DMSO zero. calls only at 9.99 µM;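 active means melting point raised past a set limit in the mean and every replicate; three in four hits are not shown here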
# Target sequence (Q9HCT0 whole entry, looked up): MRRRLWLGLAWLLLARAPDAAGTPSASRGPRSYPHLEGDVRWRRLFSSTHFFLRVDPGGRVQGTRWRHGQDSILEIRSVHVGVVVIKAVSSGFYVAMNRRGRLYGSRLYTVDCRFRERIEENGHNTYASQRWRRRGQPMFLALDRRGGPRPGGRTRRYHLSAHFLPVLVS
# rRNA inh HTS OD600: also measured in rRNA inh HTS; calls as there; OD600 change, %; measured here: OD600 growth;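 optical density of the mix in the first replicate; 0 = DMSO median and -100 = no signal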
# rRNA inh HTS RFP: recorded beside rRNA inh HTS, whose call it bears; RFP signal change, %; measured here: RFP humanized mutant strains;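 first replicate; 0 = DMSO median and -100 = no signal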
# The depositor's hits bear a star; i = inactive; / = no result given; & = joins results of further samples. Only part of the results is shown (hit frequency here may not be typical).
SMILES,ALR H2O2 inh,HNF4A DNA FP,Beta2AR agonist,rRNA inh HTS,rRNA inh HTS OD600,rRNA inh HTS RFP,E coli growth,UCH37 inh,FGF22 binding
CCOC(=O)c1cnc2ccc(C)cn2c1=O,-15,2.4,-1,16,16,1.6,0.67,-402,i
O=C(COC(=O)c1cc2ccccc2o1)c1ccccc1,-5,1.8,-15,/,/,/,0.75,3.3,/
Cc1c(C(=O)Nc2nc3ccccc3[nH]2)cccc1[N+](=O)[O-],4,0.6,-14,/,/,/,0.68,0.5,/
Cc1ccc(C(=O)CN2C(=O)C(C)Oc3ccccc32)cc1 (stereo unspecified),-17,3.7,-2,-36,-31,-4.7,0.68,-2.1,i
NC(=O)c1cc(N)ccc1N1CCCC1,83*,3.5,12,/,/,/,0.72,-30,/
O=C(Cn1nnc(N2CCCC2)n1)N/N=C/c1ccc(Cl)cc1,5,1.8,-5,7,8,4.9,/,/,i
Cc1nn(-c2ccccc2)c(Cl)c1/C=N/Nc1ccc(S(=O)(=O)Nc2ccccc2C(=O)O)cc1[N+](=O)[O-],3,-16,8,/,/,/,/,/,/
COc1ccc(S(=O)(=O)NC(C)C)cc1C(=O)N1CCOCC1,-3,-1.3,-5,-1,-3,1.1,0.68,-2.7,/
COc1cccc(-c2cc(C(=O)Nc3ccn(Cc4ccc(C)cc4)n3)no2)c1,-4,-0.7,2,2,7,-1.9,0.69,0.2,i
O=C(CCN1C(=O)c2ccncc2C1=O)NCc1ccc(Cl)cc1,-6,0.8,-2,/,/,/,0.72,2.4,/
O=C(COc1ccc2c3c(c(=O)oc2c1)CCC3)N1CCCC1,1,-1.8,-11,1,4,-2.4,0.68,-63,i
COc1ccccc1N(C(=O)CNS(=O)(=O)c1ccccc1)C(C(=O)NCc1ccco1)C(C)C (stereo unspecified),/,1.1,7,/,/,/,0.71,-0.1,/
CN(C)S(=O)(=O)c1ccc2c(c1)Cc1cc(S(=O)(=O)N(C)C)ccc1-2,-4,-0.7,-14,12,9,0.0,0.69,6.5,i
COc1cc2ncc(S(=O)(=O)c3ccccc3)c(N3CCC4(CC3)OCCO4)c2cc1OC,-3,0.4,4,-23,-34,-8.7,0.69,0.5,i
Cc1c(C(=O)OC(C)CCN(C)C)oc2ccccc12 (stereo unspecified),-4,-5.9,-1,/,/,/,0.68,5.0,/
COC(=O)C1=C(\O)CCCC/C=C\1C(=O)O,/,0.2,0,7,11,-2.0,/,/,i
COc1cccc2c1CCC(NC(C)=O)C2=O (stereo unspecified),-15,0.8,0,0,6,2.5,0.67,-16,i
CC1=C(C(=O)OC(C)C)C2(O)C(=O)c3ccccc3C2(O)N1 (stereo unspecified),-13,-0.8,5,/,/,/,0.7,14,/
CC1Cc2ccccc2N1S(=O)(=O)c1cccc(C(=O)NCc2ccco2)c1 (stereo unspecified),/,2.2,0,-7,-16,0.7,0.71,1.3,i
Cc1ccc(NC(=S)NC2CCSc3ccccc32)cc1 (stereo unspecified),5,3.6,9,-44*,-29*,-6.8*,0.66,0.3,i

# One compound at a time, as listed above:
# Results for O=C(CCN1C(=O)c2ccncc2C1=O)NCc1ccc(Cl)cc1 = ALR H2O2 inh: -6; HNF4A DNA FP: 0.8; Beta2AR agonist: -2; rRNA inh HTS: /; rRNA inh HTS OD600: /; rRNA inh HTS RFP: /; E coli growth: 0.72; UCH37 inh: 2.4; FGF22 binding: /
# Results for CC1=C(C(=O)OC(C)C)C2(O)C(=O)c3ccccc3C2(O)N1 (stereo unspecified) = ALR H2O2 inh: -13; HNF4A DNA FP: -0.8; Beta2AR agonist: 5; rRNA inh HTS: /; rRNA inh HTS OD600: /; rRNA inh HTS RFP: /; E coli growth: 0.7; UCH37 inh: 14; FGF22 binding: /
# Results for Cc1ccc(C(=O)CN2C(=O)C(C)Oc3ccccc32)cc1 (stereo unspecified) = ALR H2O2 inh: -17; HNF4A DNA FP: 3.7; Beta2AR agonist: -2; rRNA inh HTS: -36; rRNA inh HTS OD600: -31; rRNA inh HTS RFP: -4.7; E coli growth: 0.68; UCH37 inh: -2.1; FGF22 binding: i

# Continuation.
SMILES,ALR H2O2 inh,HNF4A DNA FP,Beta2AR agonist,rRNA inh HTS,rRNA inh HTS OD600,rRNA inh HTS RFP,E coli growth,UCH37 inh,FGF22 binding
Cc1ccc(C2=NN(C(=O)c3ccccc3F)C(c3ccccc3F)C2)cc1 (stereo unspecified),10,7.0,10,11,13,1.8,0.73,-1.2,i
COc1ccc2c(c1)C(c1cccs1)=NNC(c1cccnc1)=N2,-7,5.6,4,11,3,-0.4,0.65,4.2,/
COC(=O)Cn1c(C)nc2ccccc21,-2,2.0,4,/,/,/,0.66,2.6,/
CC(=O)Nc1ccc(OCCOc2ccc(/C=C3\C(=N)N4N=C(C)SC4=NC3=O)cc2)cc1,-6,4.5,9,5,12,12,0.67,1.7,i
COc1ccc(Cc2nc3c4c(ncn3n2)Oc2ccc3ccccc3c2C4c2ccc(OC)c(OC)c2)cc1 (stereo unspecified),-4,-0.5,-8,/,/,/,0.73,1.3,/
Cc1nnc(NC(=O)c2cccc(Br)c2)s1,8,1.0,-10,/,/,/,0.72,0.0,/
COCc1c(C(=O)NC2CCCCCC2)oc2ccccc12,89*,0.9,-4,/,/,/,0.72,4.0,i
Cc1cccc(C(=O)Oc2ccc(/C=N/NC(=O)c3cc(O)cc(O)c3)cc2)c1,16,-21,9,-31,-58,3.6,/,/,i
COc1ccc(OC)c(NC(=O)CCN2CCCC(C)C2)c1 (stereo unspecified),-16,-0.4,3,/,/,/,0.65,0.6,/
COc1nc(Cc2ccc(Cl)cc2)nc2ccccc12,0,-0.5,-8,-42,-66,-9.6,0.66,2.9,i
Nc1ccccc1Oc1c(F)c(F)c(Oc2ccccc2N)c(F)c1F,-1,0.1,6,1,-5,-2.7,0.73,4.2,i
N#Cc1sc(=O)[nH]c1Cl,15,-9.3,0,0,-3,-8.3,0.69,0.9,i
CCCCNc1c(-c2ccc(OC)c(SC(C)CC)c2)nc2ccc(C)cn12 (stereo unspecified),19,0.6&6.7,39,-21,-30,8.3,/,/,i
Cc1cc(=O)oc(C)c1C(=O)OCC(=O)c1ccc(Cl)c(Cl)c1,-7,5.7,-8,/,/,/,0.71,2.1,/
Cc1ccc(CN(C)C(=O)C2CCN(C(=O)Nc3ccccc3)CC2)o1,/,-1.1,0,3,3,0.1,0.69,-0.9,i
Cc1nc(Nc2ccc3c(c2)OCO3)c2oc3ccccc3c2n1,45,2.1,11,/,/,/,0.7,-22,/
CC(C)CCn1c(CN(C)Cc2ccccc2)nc2c1c(=O)n(C)c(=O)n2C,-14,0.8,2,/,/,/,0.68,3.7,/
CN1CCC(=NNC(=O)c2ccco2)CC1,-1,0.0,-2,/,/,/,0.69,3.7,/
O=C(NCCc1ccc(Cl)cc1)c1cccc(NC2=NC3CS(=O)(=O)CC3S2)c1 (stereo unspecified),-1,0.1,-3,-1,-10,-0.5,0.72,0.5,i
CCOP(=O)(OCC)C(C)(C)NC(=O)c1cc([N+](=O)[O-])cc([N+](=O)[O-])c1,-24,4.3,1,/,/,/,0.73,3.2,/
Cc1nc2ccccc2c2c1CC(C)S2 (stereo unspecified),-12,-0.1,0,-5,-8,-12,0.69,-12,i
CNCc1ccccc1Sc1ccc(OC)c(OC)c1,2,0.3,-5,/,/,/,0.75,1.2,/
CC(=O)OC(COc1ccccc1)Cn1cnc2cc(C)c(C)cc21 (stereo unspecified),-3,-3.3,6,-58,-76,-22,0.64,-5.1,/
CC1CN(C(=O)c2ccc(Br)c(S(=O)(=O)N3CCOCC3)c2)CC(C)O1 (stereo unspecified),/,0.0,-2,1,3,-0.5,0.72,3.1,i
COc1ccccc1NC(=O)COc1ccc2c(c1)OCO2,6,1.0,1,9,2,2.8,0.69,3.6,i
CC(Nc1[nH]c(=O)n(C)c(=O)c1N=O)c1ccccc1 (stereo unspecified),6,4.3,-6,21,16,3.0,0.68,3.0,i
Cc1cc(NC(=O)C2CCCCC2)nc2c1c(=O)oc1ccccc12,-3,0.3,-6,/,/,/,0.71,1.9,/
COc1ccc(C(CNC(=O)C(CCSC)NC(=O)c2ccccc2OC)N2CCCCC2)cc1 (stereo unspecified),-4,4.8,-10,10,8,5.5,0.7,0.1,i
Cc1noc(C)c1NC(=O)N(C)C[C@@H]1Oc2ncc(Br)cc2C(=O)N([C@@H](C)CO)C[C@@H]1C,/,0.6,/,8&3,7&4,-2.2&-5.0,/,/,i
CC(Oc1cccc(Cl)c1)C(=O)Nc1cc(S(=O)(=O)N2CCOCC2)ccc1N1CCCCC1 (stereo unspecified),/,2.2,6,4,10,0.4,0.66,4.8,i
COc1ccc(Cc2nnc(Nc3ccc(C)cc3C)[nH]c2=O)cc1,-2,-1.2,5,/,/,/,0.69,1.7,/
Cc1ccn2nc(C(=O)OCC(=O)N(CC(C)C)C3CCS(=O)(=O)C3)nc2n1 (stereo unspecified),0,2.1,4,/,/,/,0.65,3.0,i
COc1cc2ccccc2cc1C(=O)NC1CCCC1,-19,-1.1,-7,-21*,-25*,0.7*,0.67,-37,i
Cc1cc(C)nc(NC(=O)CSc2nc3ccccc3s2)n1,-12,-2.7,0,-7,-2,-7.4,0.65,2.8,i
CCc1nnc(NC(=O)CSc2nnc(Cc3cc(=O)[nH]c(=O)[nH]3)n2-c2cccc(OC)c2)s1,96*,2.3,4,12,15,1.8,0.71,0.1,i
C=CCNc1ncnc2c1cnn2-c1ccc(Cl)cc1,-2,-2.5,-2,5,5,0.7,0.75,-1.1,i
CCOc1ccc2ccccc2c1C1NC(=O)N(C)C(C)=C1C(=O)OCCOC (stereo unspecified),-4,-1.3,-1,3,13,-3.9,0.72,1.2,i
CCCNC(=O)C1(C)CCN(C(=O)c2ccc3sccc3c2)C1 (stereo unspecified),/,1.6,/,-2,2,-1.3,/,/,i
N=c1n(-c2ccccc2)c(O)cc(=O)n1-c1ccccc1,18,-1.6,2,/,/,/,0.67,1.7,/
C=CCNC(=O)N1C2=NC(C(=O)OC)=C(C(=O)OC)[C@@H]3N(Cc4ccccc4)c4ccccc4[C@]23C[C@H]1C(=O)OC,1,1.1,-5,7,8,-1.2,/,0.3,i
Cc1ccc(C(=O)NCc2ccc(F)cc2)s1,-6,2.2,3,/,/,/,0.66,1.3,i
CC(C)NC(=O)C(C)n1cccc1C(=O)c1ccccc1 (stereo unspecified),-2,-3.6,1,/,/,/,0.72,1.4,/
CCOC(=O)CNC(=O)Nc1nnc(-c2ccc(OCC)cc2)o1,-12,0.0,-1,/,/,/,0.72,-2.6,/
Cc1ccc(F)c([C@H]2[C@@H]3C=CCC[C@@]3(C)C(=O)N2Cc2ccccc2)c1,-5,2.5,8,-30,-45,-1.8,/,4.1,i
C=CCOc1ccc(CNCCc2ccc(S(N)(=O)=O)cc2)cc1,8,-2.6,-4,18,18,-1.1,0.73,3.1,i
CCOc1ccc(C(C)=O)cc1COC(=O)CCc1cc(OC)c(OC)c(OC)c1,-2,4.4,-15,-10,-14,3.1,0.7,2.9,i
CC(=O)c1c[nH]c(C(=O)NCc2cccc(C(F)(F)F)c2)c1,-4,-0.2,-8,8,11,-0.2,0.65,0.7,i
O=C(CN1CCN(c2ccc(F)cc2)CC1)c1ccc2c(c1)OCO2,14,-1.1,-3,/,/,/,0.69,0.0,/
COC(=O)c1cn(C(C)C(=O)NCc2ccco2)c2ccccc12 (stereo unspecified),/,0.1,4,/,/,/,0.67,2.5,/
Cc1cc(NC(=O)CCCS(=O)(=O)c2nc(-c3cccs3)cc(C(F)(F)F)n2)no1,65,-2.4,39,6,0,1.3,0.75,4.4,/
